Screens (PubChem BioAssay)
eIF4H FP inh: inhibitors of RNA binding by human eIF4H; eIF4H fluorescence polarization binding assay; inhibition, % at 35 µM; 290,000 compounds, 0.94% hits; AID 2012;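 active = 50% or more with normal probe brightness, or confirmed in later tests; about a fifth of its hits are not listed in these tables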;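 note: calls also rest on retests at 20 µM and on dose response follow-up; 0% = protein and probe with vehicle and 100% = probe without protein; strong numbers were not always called active; many hits fall short of the cut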
MT1-MMP act inh: inhibitors of human MT1-MMP activation | HT1080 RFP-PRO-GFP cells, GFP/RFP ratio fluorescence, overnight; percent of plate control window, DMSO zero | P50281 | GFP/RFP ratio change, % at 20 µM | 360,000 compounds, 0.061% hits | AID 651647;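 active = GFP/RFP ratio change of at least 30% with cell ATP level not reduced by more than half and red fluorescence within 50% of control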; note: strong numbers were not always called active
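system = RFP-PRO-GFP reporter HT1080 cells | dosing = 20 µM single dose, 1% DMSO | timing = overnight cell settling, then overnight compound exposure, 37 °C, 5% CO2 | read-out basis = GFP/RFP fluorescence ratio | controls = DMSO and RFP-L50D-GFP cell wells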
CSC inhib: cancer stem cell inhibition; 300,000 compounds, 1.1% hits; AID 2717; cancer stem cell-like cells viability, luminescence; inhibition, % at 7.5 µM;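 active = mean at 75% or more and at least half the replicates too; tested in HMLE shEcad cells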;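 note: 0% = median of negative and 100% = median of positive control wells; the first replicate is given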
PABP FP inh: blocks human PABP binding to poly(A) RNA; P11940; fluorescence polarization; inhibition, % at 35 µM; 290,000 compounds, 1% hits; AID 2014;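 active = 50% or more with normal probe brightness, or confirmed in later tests; about a fifth of its hits are not listed in these tables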;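 note: calls also rest on retests at 20 µM and on dose response follow-up; controls were probe without protein and protein plus probe with vehicle; some compounds called inactive have numbers as strong as hits; many hits fall short of the cut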
Target sequence (P11940 whole entry, looked up): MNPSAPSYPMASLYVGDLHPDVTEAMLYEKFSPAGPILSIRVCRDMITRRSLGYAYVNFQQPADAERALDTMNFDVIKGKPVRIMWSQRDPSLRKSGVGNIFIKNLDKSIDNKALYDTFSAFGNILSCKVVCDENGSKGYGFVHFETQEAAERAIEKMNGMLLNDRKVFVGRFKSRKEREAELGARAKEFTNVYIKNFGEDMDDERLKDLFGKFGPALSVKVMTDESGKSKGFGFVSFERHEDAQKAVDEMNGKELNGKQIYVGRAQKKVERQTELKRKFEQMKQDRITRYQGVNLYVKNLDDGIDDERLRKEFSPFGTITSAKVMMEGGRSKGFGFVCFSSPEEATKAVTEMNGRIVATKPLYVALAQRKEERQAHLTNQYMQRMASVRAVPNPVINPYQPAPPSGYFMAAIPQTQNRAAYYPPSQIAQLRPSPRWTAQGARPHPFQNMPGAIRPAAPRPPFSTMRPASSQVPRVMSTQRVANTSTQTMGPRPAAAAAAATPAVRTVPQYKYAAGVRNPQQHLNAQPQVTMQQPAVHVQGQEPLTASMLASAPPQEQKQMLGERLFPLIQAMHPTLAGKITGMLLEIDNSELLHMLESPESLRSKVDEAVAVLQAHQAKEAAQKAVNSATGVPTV
HIV Env fusion: blocks HIV Env-driven cell-cell fusion; HeLa-JRFL Env/CEM21 cell fusion, luciferase; inhibition, % at 12.3 µM; 360,000 compounds, 1.1% hits;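 active = mean replicate inhibition score of at least 50 and every replicate individually at or above 50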;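 note: 0% = plate neutral controls and 100% = maraviroc near 300 nM; one replicate is shown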
Yeast UUG start: modulators of start codon recognition fidelity in yeast; S. cerevisiae UUG-firefly luciferase reporter, luminescence/redox ratio; activity score, % at 18.7 µM; 350,000 compounds, 0.13% hits;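 active = replicate mean at a twofold rise or more, about +100% in these data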;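 note: firefly luciferase made from a UUG start codon reports start codon fidelity; reporter light over untreated wells divided by growth signal over untreated wells; some hits fall short of that in this replicate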
Rce1 inh: blocks yeast Ras-converting enzyme. Q03530. yeast membranes, quenched prenylated peptide cleavage fluorescence. calls only. 290,000 compounds, 0.27% hits. AID 2563;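 active = fall in fluorescence gain of 50% or more versus controls, with final raw signal at or below 3038400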;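 note: plate controls were neutral control wells for no effect and wells lacking membranes for full effect; tested at 10 µM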
eIF4H FP inh retest: recorded beside eIF4H FP inh, whose call it bears; inhibition, %; compound at 20 µM; confirmation average;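 mean of two retest wells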
PABP FP inh retest: also measured in PABP FP inh; calls as there; inhibition, %; compound at 20 µM; confirmation repeats;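 mean of two retest wells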
MT1-MMP act inh RFP: second read-out of MT1-MMP act inh, no call of its own (marks repeat the call); RFP signal change, %; measured here: RFP expression control read;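 0 = vehicle wells; hits needed this value within 50% of zero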
Starred values were filed as active, the others as inactive; i = inactive; . = not tested or not shown. This is a subset; rates above refer to the full screens.

SMILES	eIF4H FP inh	MT1-MMP act inh	MT1-MMP act inh RFP	CSC inhib	PABP FP inh	HIV Env fusion	Yeast UUG start	Rce1 inh	others
CC1=C(C#N)C(=O)NC(C)(C)C1	-5	-9	4	.	10	.	1	i
CN(C(=O)c1cccc(S(=O)(=O)N2CCOCC2)c1)c1c(N)n(Cc2ccccc2)c(=O)[nH]c1=O	.	2	1	2	.	-5	-9	.
CCOC(=O)C1=C(C)OC(N)=C(C#N)C1c1cccc(C)c1 (stereo not given)	-11	-3	-6	-7	-2	-4	-25	i
COc1ccc(C(=O)C2CCCN(Cc3ccc(Sc4nncn4C)o3)C2)cc1F (stereo not given)	0	0	3	4	4	10	-3	i
COc1ccc(-c2cc(C(=O)NCc3ccco3)no2)cc1OC	-2	1	-3	4	0	-68	-21	.
COc1ccccc1NC(=O)CC1C(=O)NCCN1C(=O)Nc1ccccc1 (stereo not given)	0	1	4	4	11	.	3	i
COCCNC(=O)C1(C)CCCN(C(=O)c2ccccc2C(F)(F)F)C1 (stereo not given)	.	5	10	.	.	-18	-19	.
Cc1ccc(S(=O)(=O)NC(CC(=O)O)c2cccs2)cc1 (stereo not given)	6	2	4	0	8	-10	-11	i
CCn1c(-c2cc(C3CC3)nc3ccccc23)n[nH]c1=S	1	-8	-4	.	74	18	8	i	eIF4H FP inh retest=-1;PABP FP inh retest=19
Fc1ccc(NC(=S)N2N=CCC2c2ccccc2)cc1 (stereo not given)	0	7	3	-4	-4	-90	-22	i
Cc1ccc(/C=C/C(=O)Nc2ccc(N(C)C)cc2)o1	5	6	-1	-2	5	-87	9	i
Cc1cc(S(=O)(=O)N2CCCOC2CNC(=O)C(=O)NCCc2ccco2)ccc1F (stereo not given)	-5	-2	-2	-1	3	4	11	i
Cc1ccc(/C=C/C(=O)OCC(=O)c2ccc3c(c2)NC(=O)CO3)o1	.	1	-2	-10	.	-10	-2	.
CCCOc1ccc(OCCn2nc(C(=O)O)c3ccccc3c2=O)cc1	-6	6	-3	-5	9	-5	.	i
COc1ccc(-c2nc(CS(=O)CC(=O)N3CCN(C)CC3)c(C)o2)cc1 (stereo not given)	-4	4	5	-8	10	-1	-15	i
CC(C)CN(CC(C)C)C(=S)Nc1ccc(Cl)cc1	0	-2	-5	-3	-8	17	.	i
CCN1CCN(c2ccc(S(=O)(=O)N3CCCCC3)cc2NC(=O)c2ccccc2)CC1	.	5	4	.	.	-10	-22	i
COC(=O)CCCC(=O)N1CCOCCN(C(=O)CCCC(=O)OC)CCOCC1	-7	-2	0	0	4	.	0	.
COc1cc(OC)c(OC)cc1/C=C1/C(=O)N=C(N)N1C	22	-25	4	-3	1	0	.	i
Cc1ccc(C)c(NC(=O)CSc2nnc(-c3ccncc3)n2N)c1	-4	0	0	-12	2	-56	-3	i
O=C(Nc1cccc(S(=O)(=O)NC2=NCCC2)c1)c1cc(-c2ccco2)nc2ccccc12	90*	-2	4	3	68*	10	-28	i
COc1cc(OC)c(C(=O)N/N=C/c2ccoc2)cc1OC	3	3	1	17	5	-144	-6	i
Cc1nnc2c3ccccc3c(-c3cccc4ccccc34)nn12	1	8	0	.	8	35	-6	.
Oc1ccc(Cl)cc1C(C#Cc1ccccc1)N1CCOCC1 (stereo not given)	1	-1	-5	.	-7	.	40	i
CCc1cc(=O)oc2cc(C)cc(OCC(C)=O)c12	-2	-5	-6	-13	11	8	-9	i
Cn1c(=O)n(Cc2ccc(Br)cc2)c2ccccc21	5	-3	-6	4	2	2	.	i
Cc1ccc(O)c(C(=O)c2cnn(C(=O)Cc3csc(C)n3)c2)c1	-2	-8	-8	-15	10	.	-19	.
COc1ccc(OCC(=O)Nc2ccc3oc(=O)ccc3c2)cc1	0	0	3	16	3	-19	-14	i
COc1ccc(S(=O)(=O)NCc2ccccn2)cc1NC(=O)c1ccc(C)cc1	.	-1	-15	36	.	-2	.	i
N/C(=N\OC(=O)c1ccc2c(c1)OCO2)c1cccc([N+](=O)[O-])c1	2	0	3	11	-2	-56	.	i
CN(C)C(CNC(=O)c1cccc(S(=O)(=O)N2CC3(C)CC2CC(C)(C)C3)c1)c1ccco1 (stereo not given)	6	0	-3	11	-2	-33	11	i
Cc1nc(-c2cc(-c3nc(-c4cc(C(F)(F)F)cc(C(F)(F)F)c4)no3)no2)cs1	-10	6	1	-7	4	19	-15	i
C[C@H]1CN=C(N(C)C)N1CCc1cccc(F)c1	.	4	3	-13	.	-32	-17	.
Nn1c(SCC(=O)N2CCCc3ccccc32)nnc1-c1ccccc1	-2	-2	-3	-1	-2	.	-9	i
C=CCn1c(COc2ccc(OC)cc2)nnc1SC(C)C(=O)NC1CC1 (stereo not given)	.	2	-1	-8	.	-13	-8	.
CCOC(=O)c1sc(=S)n(-c2ccc(Cl)cc2)c1C	-7	4	-4	14	-4	.	-22	i
O=C(COC(=O)c1cc([N+](=O)[O-])ccc1N1CCOCC1)NCc1ccccc1	.	3	5	.	.	-6	-8	.
CCc1ccc(S(=O)(=O)Nc2ccc(O)c3c(=O)cc(-c4ccccc4Cl)oc23)cc1	0	3	-6	15	73	15	-14	i	eIF4H FP inh retest=-1;PABP FP inh retest=3
CC(C)NC(=O)Cn1cnc2c(cnn2-c2ccc(F)cc2)c1=O	0	-4	4	-14	-6	-15	6	i
Nc1c(S(=O)(=O)c2cc(Cl)ccc2Cl)c2nc3ccccc3nc2n1CCN1CCOCC1	-5	-5	-9	6	-2	41	2	i

Five compounds drawn at random from the list so far, as already listed:
SMILES	eIF4H FP inh	MT1-MMP act inh	MT1-MMP act inh RFP	CSC inhib	PABP FP inh	HIV Env fusion	Yeast UUG start	Rce1 inh	others
COc1ccc(OCC(=O)Nc2ccc3oc(=O)ccc3c2)cc1	0	0	3	16	3	-19	-14	i
N/C(=N\OC(=O)c1ccc2c(c1)OCO2)c1cccc([N+](=O)[O-])c1	2	0	3	11	-2	-56	.	i
O=C(COC(=O)c1cc([N+](=O)[O-])ccc1N1CCOCC1)NCc1ccccc1	.	3	5	.	.	-6	-8	.
C[C@H]1CN=C(N(C)C)N1CCc1cccc(F)c1	.	4	3	-13	.	-32	-17	.
Oc1ccc(Cl)cc1C(C#Cc1ccccc1)N1CCOCC1 (stereo not given)	1	-1	-5	.	-7	.	40	i

Other results
SMILES	eIF4H FP inh	MT1-MMP act inh	MT1-MMP act inh RFP	CSC inhib	PABP FP inh	HIV Env fusion	Yeast UUG start	Rce1 inh	others
O=c1oc2ccccc2cc1-c1csc(Nc2ccc(O)cc2)n1	2	-6	-15	46	-1	-56	-24	i
C/C(=C\c1ccccc1)CN1CCN(c2cccc(Cl)c2)CC1	9	-3	-2	.	7	-10	-7	i
O=C(O)c1ccc(CSc2nnc(COc3ccc(Cl)cc3Cl)o2)cc1	9	1	-3	2	5	-9	-20	i
C=CCN(C(=O)c1csnn1)C(C(=O)NC1CCCCC1)c1ccc(Cl)cc1 (stereo not given)	-1	-1	0	-5	11	10	-15	i
Cc1oc(-c2ccccc2)nc1C(=O)OCC(=O)NCc1ccccc1	.	-5	3	.	.	14	-11	.
O=C(Nc1ccc2c(c1)OCCO2)C(C1CC1)N1CCN(c2ccc(F)cc2)CC1 (stereo not given)	.	4	1	.	.	22	-14	.
O=C(NCCCCCNC(=O)c1cccnc1)c1cccnc1	0	1	5	7	-8	-12	-15	i
COCCN(CCOC)C(=O)c1cc2sc3ccccc3c2s1	-5	26	-3	-6	-7	.	5	i
COc1cccc(-n2nnc3c(=O)n(CC(=O)N4CCCc5ccccc54)cnc32)c1	-5	-3	-3	-6	4	-4	-3	i
O=C(c1ccc2c(c1)OCO2)n1nnc2ccccc21	-2	.	.	.	2	.	.	i
COc1cccc(-n2nnc3c(=O)n(CC(=O)Nc4cc(C)on4)cnc32)c1	0	0	2	-10	-4	30	.	i
O=C(CCc1ccc(S(=O)(=O)N2CCOCC2)cc1)Nc1c(F)cccc1F	.	2	3	-17	.	.	-9	.
C=CCn1c(SCC(=O)NCCO)nc2sc(C)c(C)c2c1=O	-5	-3	1	-13	-15	32	.	i
C=CCOc1ccccc1CN1CCC(Oc2ccc(C(=O)N3CCCC3)cc2)CC1	1	1	2	1	-7	5	-12	i
O=C(NCc1cccnc1)NC(=O)c1ccc(Cl)cc1	-1	1	2	-8	14	-4	-12	i
O=C1C(=O)N(CCCN2CCOCC2)C(c2ccc(F)cc2)/C1=C(/O)c1ccccc1 (stereo not given)	-2	2	4	2	-6	6	-5	i
O=C(NC(=O)c1ccc(Cl)cc1)Nc1ccc(-c2cnco2)cc1	0	.	.	-8	-2	.	.	i
CCOc1ccccc1NC(=S)NCc1ccccc1	-4	6	0	-1	3	-81	-19	i
O=C(NCCCN1CCCCCC1)c1ccc2c(c1)NC(=O)C(N1CCOCC1)S2 (stereo not given)	5	-6	0	2	19	.	2	i
COc1ccc(CCNC(=O)COC(=O)c2cc(=O)[nH]c3ccccc23)cc1	.	2	-1	-16	.	-54	-13	.
CC1=C(c2ccccc2)[N+](=O)C2(CCCCC2)N1[O-]	3	-4	0	-4	-9	5	-14	i
NNC(=O)c1cncn1-c1ccc(F)cc1	-1	1	8	33	5	3	.	i
O=C(COC(=O)c1cccc(S(=O)(=O)N2CCOCC2)c1)Nc1ncc(C(F)(F)F)cc1Cl	11	0	10	0	13	-37	-5	i
COC(=O)c1ccc(NC(=O)COc2ccccc2OC)cc1	-6	0	4	2	17	.	-16	i
COC(=O)c1ccc(CSc2nc3ccccc3s2)o1	-11	-2	-2	3	16	.	-22	i
Cn1cc(S(=O)(=O)NC[C@H]2O[C@@H](n3cnc4c(N)ncnc43)[C@H](O)[C@@H]2O)cn1	.	1	5	.	.	4	1	.
Cc1occc1C(=O)NNC(=O)c1ccccc1F	-4	0	1	8	-2	2	.	i
O=C(Nc1ccc(F)cc1)c1cc(-c2ccccn2)nc2c(Cl)cccc12	7	0	2	-11	6	-35	0	i
O=C1CCCN1CCCNc1nc2c(S(=O)(=O)c3ccc(Br)cc3)nnn2c2ccccc12	-2	0	2	-19	-4	-12	-14	i
O=C(O)c1cccc(N2C(=O)C=CC2=O)c1	.	-2	3	.	.	6	-15	.
O=C(Nc1nnc(-c2ccccc2)s1)c1cccc(S(=O)(=O)N2CCOCC2)c1	-5	1	-6	-16	2	.	.	.
CC12CCC(C(=O)NCCCN3CCOCC3)(C(Br)C1=O)C2(C)C (stereo not given)	-18	1	4	-19	-8	8	.	i
COc1ccc(N2CC(C(=O)Nc3c4c(nn3-c3ccc(OC)cc3)CS(=O)(=O)C4)CC2=O)cc1 (stereo not given)	-10	-5	-2	-8	1	-4	-8	i
COC(=O)c1ccc(NC(=S)N2CCN(C(=O)c3ccco3)CC2)cc1	-12	1	0	-9	6	-2	-10	i
O=C(OCC(=O)c1ccccc1Br)c1ccccn1	-14	-2	-5	7	-4	.	-35	i
Cc1nc(C)c(-c2ccn(S(=O)(=O)c3ccc(Cl)cc3)n2)o1	-17	-1	-3	-11	13	-6	.	.
N#C/C(=C\c1ccc(Cl)s1)C(=O)N1CCN(c2ccccc2)CC1	-9	-11	-1	0	4	5	.	i
CCOc1cc(N2CCOCC2)c(OCC)cc1NC(=O)c1ccc(OC(C)C)cc1	-7	0	0	-11	-4	9	.	i
C/C(N)=C(/C#N)C(=O)COC(=O)C(c1ccccc1)c1ccccc1	2	0	-1	51	11	19	-9	i
Cc1nc(CS(=O)c2ccc(Cl)cc2)cc(N2CCOCC2)n1 (stereo not given)	5	0	5	-13	0	.	-8	i
COc1ccc(/C=C/C(=O)NCC(=O)N/N=C(/C)c2ccc(Cl)cc2)cc1	-9	1	0	-6	-35	6	-19	i
